Screening data deposited in PubChem BioAssay by ICCB-Longwood Screening Facility, Harvard Medical School.
AID504770 – growth inhibitors of E. coli YBA685 in a screen for V. cholerae RctB (chromosome II replication) inhibitors; E. coli YBA685 rctB-dependent plasmid, OD600 growth, 3 h; stronger effect = lower value; z-score (concentration not given with the values); 0.27% of 130,000 active; AID 504770;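 active means z-score under -2 on both plates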;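 further: wells of about 30 µL received 100 nL stock; score is relative to mean and SD of the test wells; the first replicate is given; strong numbers were not always called active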
Ba CapD inh – inhibitors of Bacillus anthracis CapD enzyme; purified CapD enzyme, fluorescence intensity read-out; stronger effect = lower value; some hits fall short of the stated cut; z-score (test concentration not listed); 0.23% of 140,000 active;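 active means z-score under -4 in either of two replicates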;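 further: stock transfer was 100 nL into about 40 µL; score is relative to mean and spread of the plate; one replicate is shown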
* marks the source's active call; other numbers are inactive results; i = inactive; x = not tested or not shown.

nr	SMILES	AID504770	Ba CapD inh
1	CCOc1cc(C2C(C#N)=C(N)OC3=C2C(=O)CC(c2ccco2)C3)cc([N+](=O)[O-])c1O (stereo not drawn)	x	-0.99
2	C=CCn1c(=O)/c(=C\c2cccs2)s/c1=C(/C#N)C(=O)N1CCCC1	-1.1	x
3	N#C/C(=C/c1ccc(-c2cccc(C(F)(F)F)c2)o1)C(=O)OC1CCCCC1	0.05	x
4	CN(Cc1nc2ccccc2n1C)CC1CCCCC1	1.1	x
5	N#C/C(=C\c1ccc(C(F)(F)F)cc1)c1csc2ccccc12	-0.25	40
6	CCOC(=O)C1=C(CN2c3ccccc3CC2C)NC(=O)NC1c1ccccc1 (stereo not drawn)	-2.1	x
7	COc1cc(C2C(C#N)=C(N)Oc3c2c(C)nn3-c2ccccc2)cc(OC)c1OC (stereo not drawn)	x	0.23
8	COC(=O)c1cc(S(=O)(=O)N2CCCCC2C)c[nH]1 (stereo not drawn)	1.2	-1.5
9	O=C(O)CSc1nc(-c2ccccc2)cc(C(F)F)n1	0.05	x
10	N#CCc1nc(-c2ccc(C(F)(F)F)cc2)cs1	-0.65	-0.71
11	NC(=O)c1ccccc1NC(=O)CC1(CC(=O)O)CCCC1	0.65	2.5
12	O=S(=O)(CCSc1ccc(C(F)(F)F)cn1)c1ccc(OC(F)(F)F)cc1	-0.4	-0.32
13	CCOC(=O)c1sc2nc(Cc3ccccc3)nc(NCCCN3CCOCC3)c2c1C	x	35
14	FC(F)(F)c1ccc(-c2nnc(C3CC3)o2)cc1	-0.5	-0.54
15	Cc1cccc(NC(=O)NCC2CC2)c1	0.4	1.5
16	COc1cccc(/C=C2\CCCC3=C2OC(N)=C(C#N)C3c2cccc(OC)c2)c1 (stereo not drawn)	x	0.55
17	NC(=O)CSc1ccc2nnc(-c3ccccc3)n2n1	-0.9	1.6
18	Clc1ccc(N2CCN(c3ccc(Cl)cc3)C2c2ccccc2)cc1	x	0.26
19	CCN(CC)S(=O)(=O)c1ccc2oc(SCc3cn4ccsc4n3)nc2c1	0.05	x
20	O=C(NCC1CCCO1)c1ccc2c(=O)n(-c3ccccc3)c(=S)[nH]c2c1 (stereo not drawn)	1.3	0.74
21	Cc1cc(C)cc(OS(=O)(=O)c2ccc(-c3csnn3)s2)c1	x	0.49
22	O=C1CC(Nc2ccc(F)cc2)C(=O)N1C1CCCC1 (stereo not drawn)	-0.75	-0.055
23	Cc1cc(=O)[nH]c2c(C)c(Cl)ccc12	-0.7	x
24	O=C(O)CNC(=O)C1CCCCC1	-0.85	0.47
25	FC(F)(F)c1cc(N2CCN(Cc3ccccc3)CC2)c2ccccc2n1	x	4.1
26	CCCN(CCC)C(=O)CSc1nc2ccccc2c(=O)n1C1CCCC1	-0.5	0.015
27	Cc1[nH]nc2c1/C(=N\O)CC(c1ccccc1)C2 (stereo not drawn)	-0.2	-0.43
28	Cc1ccc(/C=C/C(=O)Nc2ccc(-c3nnc4n3CCCCC4)cc2)o1	-0.2	x
29	CCC(=O)Nc1sc2c(c1C(=O)Nc1ccccc1Cl)CCC2	x	4.7
30	O=C(c1cccnc1)N1N=C(c2cccs2)CC1c1ccc(F)cc1 (stereo not drawn)	x	-1.1
31	N#CC1=C(N)Oc2cc(N)ccc2C1c1ccccc1 (stereo not drawn)	0.8	0.49
32	Cc1cc(Nc2ccc(C(=O)N3CCN(c4ccccn4)CC3)cc2)n2ncnc2n1	-0.05	0.49
33	COC(=O)c1ccc(Cl)cc1NS(=O)(=O)c1ccc(C)cc1	x	0.77
34	FC(F)(F)c1ccc(-c2nc(-c3ccc(Cl)cc3)cs2)nc1	-1.1	4
35	COc1cc2ncnc(NCCCn3ccnc3)c2cc1OC	0.05	14
36	COc1ccccc1-n1c(SCC(=O)Nc2nc3ccccc3s2)nc2c(c1=O)SCC2	x	0.61
37	CC(=O)Nc1cc2c(cc1N)OCCO2	1.6	0.7
38	COc1ccc(N2CCCC2=O)cc1	-0.65	0
39	O=C(NCc1ccco1)c1ccc(-c2cc3ccccc3oc2=O)cc1	-0.55	75
40	CN1C(=O)N(C)C2(O)c3ccccc3/C(=N\N=C(N)N)C12O (stereo not drawn)	-0.75	-0.16
41	CC(C)(C)c1ccc(CN2C(=O)CCSc3ccc(Cl)cc32)cc1	x	-0.6
42	CC(C)CC(C(=O)Nc1ccccc1)N1Cc2ccccc2C1=O (stereo not drawn)	0.75	-1.1
43	CCCc1nc2ccccc2n1CC(=O)O	-0.35	0.9
44	O=C(NCc1cccnc1)C1CCCCC1	-0.65	x
45	CC(C)Oc1ccc(/C=N/NC(=O)c2csc(CS(=O)(=O)Cc3ccco3)n2)cc1	x	-0.29
46	CSCCC1(C(=O)O)NC(c2ccccc2O)C2C(=O)N(c3ccccc3[N+](=O)[O-])C(=O)C21 (stereo not drawn)	x	-0.13
47	CCOC(=O)COc1ccccc1CS(=O)(=O)c1ccc(Cl)cc1	x	-0.14
48	Cc1ccc(C2=NNC(=O)CC2)cc1C	1.4	0.24
49	Cc1ccc(OCC(=O)NCCc2ccccc2)cc1	1.1	0.15
50	COc1ccc(NC(=O)C2CC(=O)N(CCc3ccc(OC)c(OC)c3)C(=Nc3ccccc3)S2)cc1 (stereo not drawn)	x	-0.06
51	Cc1ccc(-c2csc3nnc(SCc4ccc5c(c4)OCO5)n23)cc1	-0.2	-0.42
52	CC(=O)C1=NN(c2ccccc2C)C2(S1)SC(c1ccc(C)cc1)(c1ccc(C)cc1)c1ccccc12 (stereo not drawn)	x	0.26
53	O=S1(=O)c2ccccc2S(=O)(=O)N1Cc1ccccc1Cl	x	0.16
54	O=C1CC(c2ccccc2)C(=O)N1c1ccc(F)cc1 (stereo not drawn)	-0.5	-0.32
55	CC1(C)Cc2c(sc3nc(CCCc4ccccc4)n(N)c(=O)c23)CO1	-1.2	5.7
56	N#Cc1ccsc1NC(=O)c1ccc2ncsc2c1	0.4	1
57	O=C(CSc1nc(N2CCCCC2)nc(N2CCCCC2)n1)Nc1ccccc1	2	-0.61
58	O=C(Nc1ccc(F)c(Cl)c1)c1cc(S(=O)(=O)N(Cc2ccco2)CC2CCCO2)ccc1F (stereo not drawn)	x	0.42
59	O=C(O)C(C(=O)OCc1ccccc1)c1ccccc1 (stereo not drawn)	-0.65	0.56
60	COc1ccc2[nH]c(C(=O)Nc3cccc(C)n3)cc2c1	-0.55	101

Remaining list, next part:
nr	SMILES	AID504770	Ba CapD inh
61	O=C(Cn1nc(C(F)F)cc1C1CC1)N1CCCC1	-0.15	x
62	Cc1[nH]c2ccc(C(=O)OCC(=O)Nc3nnc(-c4ccccc4)o3)cc2c1C	-2.1	x
63	COC(=O)c1ccc2snnc2c1	x	0.24
64	CN(C(=O)c1cc2c(n(-c3ccccc3)c1=O)CCCC2=O)c1ccc(O)cc1	-0.4	-0.32
65	O=C(c1ccc2c(c1)C(=O)N(Cc1ccco1)C2=O)N1CCN(c2ccccc2)CC1	-0.25	x
66	COc1ccc(Cl)cc1Nc1nnc(-c2cc3c(ccc4ccccc43)oc2=O)s1	x	0.68
67	CCOC(=O)N1CCN(C(=O)c2oc3ccc(S(=O)(=O)N(CC)CC)cc3c2C)CC1	0.3	-0.1
68	N#Cc1cccnc1N1CCC(C(N)=O)CC1	2.5	50
69	O=C(CSc1ncccc1C(=O)O)c1cc2ccccc2o1	-1	-1.1
70	Cc1nc(-c2ccccc2)sc1C(=O)/C=C/c1ccccc1[N+](=O)[O-]	x	-0.65
71	COc1cc2c(cc1O)[C@@H](Cc1ccc(O)cc1)[N+](C)(C)CC2	-1.4	x
72	CC1CN(C(=O)CCSc2ccc(Cl)cc2)CC(C)O1 (stereo not drawn)	0.8	-0.62
73	Cc1cc(C(F)(F)F)cc(S(=O)(=O)CCOC(=O)c2cccc(Cl)c2)n1	-0.15	0.4
74	CCCN1C(=O)NC(CCC(=O)O)C1=O (stereo not drawn)	-0.1	x
75	O=C(C1CCNCC1)N1CCCCC1	-0.3	x
76	FC(F)(F)c1ccnc(NCCNC(=S)Nc2cccnc2)n1	x	-0.54
77	CC(=O)N1CCC(N(C(=O)c2ccc(F)cc2)c2ccc3c(c2)OCO3)CC1	0	x
78	O=C(O)C1=NN(C2CCS(=O)(=O)C2)C(=O)CC1 (stereo not drawn)	0.55	x
79	CCOC(=O)c1c(NC(=O)CSc2nc(N)cc(=O)[nH]2)sc2c1CCCCC2	0.55	0.63
80	Cc1c2cnn(CC(=O)O)c(=O)c2c(C)n1Cc1ccccc1F	0.95	-0.06

Reprinted at random: 6 entries already listed
nr	SMILES	AID504770	Ba CapD inh
77	CC(=O)N1CCC(N(C(=O)c2ccc(F)cc2)c2ccc3c(c2)OCO3)CC1	0	x
63	COC(=O)c1ccc2snnc2c1	x	0.24
78	O=C(O)C1=NN(C2CCS(=O)(=O)C2)C(=O)CC1 (stereo not drawn)	0.55	x
75	O=C(C1CCNCC1)N1CCCCC1	-0.3	x
61	O=C(Cn1nc(C(F)F)cc1C1CC1)N1CCCC1	-0.15	x
62	Cc1[nH]c2ccc(C(=O)OCC(=O)Nc3nnc(-c4ccccc4)o3)cc2c1C	-2.1	x

The list continues.
nr	SMILES	AID504770	Ba CapD inh
81	COc1cc(OC)nc(-c2cccc(NS(=O)(=O)c3ccc(C(C)(C)C)cc3)c2)n1	x	-0.54
82	Cc1ccsc1-c1ncnn1-c1ccccc1	0.05	-0.39
83	OCCC12CC3CC(CC(CO)(C3)C1)C2	0.25	x
84	Oc1ccccc1-c1nc(-c2ccc3sc4ccccc4c3c2)c(-c2ccccc2)[nH]1	x	13
85	COc1cc(CC(=O)NN)c([N+](=O)[O-])cc1OC	x	-0.68
86	Cc1cc(C)c(C(N)=O)c(NCCc2ccccc2)n1	-0.75	54
87	Cc1cc(C)c2cc3c(cc2n1)CCN3CC(O)CO (stereo not drawn)	-2.5	0.02
88	CC1(C)SC(=S)N(/N=C/c2ccc(O)cc2)C1N(O)C(=O)NC1CCCCC1 (stereo not drawn)	x	5.6
89	O=C(Cn1c(=O)oc2cc(S(=O)(=O)NCc3ccccc3)ccc21)N1CCCCCC1	-0.8	-0.25
90	ONC(=Nc1ccccc1Cl)c1ccccc1Cl	0.9	-0.14
91	N#Cc1c(-c2ccccc2)cc(C2CC2)nc1SCC(=O)O	-0.95	2.2
92	CC(=O)Nc1ccc(-c2cnc[nH]2)cc1	-0.4	2.3
93	N#C/C(=C(/O)CN1CCN(Cc2ccccc2)CC1)c1nc2ccccc2c(=O)[nH]1	-1.9	x
94	O=C(Sc1cccc2ncccc12)c1ccccc1	0	-0.43
95	O=C(OC1CCOC1=O)c1ccc2c(c1)S(=O)(=O)c1ccccc1C2=O (stereo not drawn)	-0.45	x
96	c1ccc2c(Nc3ccc4c(c3)OCCO4)c3c(nc2c1)CCC3	0.35	-0.78
97	O=C(CN(c1ccc(Cl)c(C(F)(F)F)c1)S(=O)(=O)c1ccccc1)NCCSc1ccccn1	x	-0.28
98	CC1CCCCN1C(=O)c1cc(-c2ccccc2)on1 (stereo not drawn)	0.3	x
99	COc1ccc(S(=O)(=O)N(CC(=O)N2CCOCC2)Cc2ccccc2)cc1C	-0.95	-1.1
100	CCCNC(=O)CCc1c(C)nc2c(c(C)nn2-c2ccc(C)cc2)c1C	-0.3	7.1
101	CCn1c(SCc2nc(-c3ccc(Cl)cc3)no2)nnc1-c1ccco1	-0.4	-1.4
102	CCOC(=O)c1c(NC(=O)Cc2cccs2)sc(C(=O)Nc2cc(C(F)(F)F)ccc2Cl)c1C	x	0.54
103	O=C1O[C@@H](CO)[C@H](O)[C@@H](O)[C@@H]1O	0.2	1.1
104	O=C(NC1CCN2CCCc3cccc1c32)C(c1ccccc1)c1ccccc1 (stereo not drawn)	x	1.5
105	FC(F)(F)C(Oc1nc(NC2CCCCC2)nc(N2CCOCC2)n1)C(F)(F)F	x	-0.085
106	CCN1CCCC1CNC(=O)c1sc2ncnc(N3CCN(c4ccc(OC)cc4)CC3)c2c1C (stereo not drawn)	x	-0.57
107	CCn1c(SCC(=O)OC)nnc1-c1ccco1	-0.65	x
108	C=CCSc1nc2nc3c(cc2c(=O)n1-c1ccccc1)COC(C)(C)C3	x	1.6
109	O=C1C2C3C=CC(C3)C2C(=O)N1Cc1ccccc1 (stereo not drawn)	1.7	x
110	N#CC(C#N)=C1NC2=C(Cc3ccccc32)C(c2cccs2)=C1C#N	0.25	0.03
111	COc1ccccc1N(C)S(=O)(=O)c1ccc(C(=O)Nc2ccccc2N2CCN(C)CC2)cc1	0.75	x
112	COc1ccc(-c2nnn(-c3cccc(C(F)(F)F)c3)c2N)cc1OC	-0.75	0.6
113	COC(=O)c1ccccc1NC(=O)CC1(c2ccc(Cl)cc2)C(=O)c2ccccc2C1=O	0.1	-0.45
114	CCc1nnc(Cn2nnc3c(=O)[nH]c(C(=O)Nc4ccc(C)cc4)nc32)s1	-0.5	9.3
115	O=C(NC(NC1CCS(=O)(=O)C1)C(=O)c1ccc(Cl)cc1)c1ccco1 (stereo not drawn)	-0.2	x
116	COC(=O)C1CCCN1C(=O)C12CC3CC(CC(C3)C1)C2 (stereo not drawn)	1.2	0.22
117	CCCc1cc(C(=O)N(C2CCCCC2)C2CCCCC2)no1	2.2	-1.5
118	C/C=C/C(=O)OCc1cc(=O)oc2cc(NC(=O)OCC)ccc12	-0.9	x
119	Nc1noc(-c2ccccc2)n1	-0.2	0.13
120	S=c1sc2c(s1)SCCCS2	x	-0.17
121	N#CCCN1CCC(c2nc(-c3cccnc3)no2)CC1	x	-0.32
122	COc1cccc(C(c2c(C)[nH]n(-c3ccccc3)c2=O)c2c(C)[nH]n(-c3ccccc3)c2=O)c1O	x	-0.055
123	Cc1c(C(=O)c2ccc(F)cc2)oc2ccccc12	-0.4	-0.45
124	O=C(CCN1CCN(Cc2ccccc2)CC1)Nc1ccc2c(c1)OCO2	0.55	i
